Compound activity as filed in PubChem BioAssay.
CBX7 inh = inhibitors of human CBX7 binding to H3K27me3 peptide. AlphaScreen His6-CBX7 / biotin-H3K27me3 peptide binding; active compounds read low. normalised signal (fraction of DMSO) (no concentration beside the values). O95931. hit rate 1.1% among 66,000. AID 1224903; in the data active = normalised signal below about 0.5;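 note: 100 nL library stock added to about 20 µL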
Target sequence (O95931 whole entry, looked up): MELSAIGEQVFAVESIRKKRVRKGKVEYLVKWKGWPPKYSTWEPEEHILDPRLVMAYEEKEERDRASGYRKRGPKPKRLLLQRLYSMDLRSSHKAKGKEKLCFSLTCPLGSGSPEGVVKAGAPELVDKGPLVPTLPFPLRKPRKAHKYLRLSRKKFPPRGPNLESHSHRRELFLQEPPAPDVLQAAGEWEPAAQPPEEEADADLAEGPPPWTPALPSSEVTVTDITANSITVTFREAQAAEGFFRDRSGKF
CBX7 inh z-score = second read-out of CBX7 inh, no call of its own (marks repeat the call); z-score; measured here: z-score of CBX7 signal; some inactives read as strong as hits; reference of the scale not given here;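 same signal on another scale; lower means less binding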
Numbers without * were called inactive. These rows are one share of the data; count on the stated rates, not on these rows.

SMILES	CBX7 inh	CBX7 inh z-score
CCN(CC)CCNC(=O)CCN1N=C(c2ccc(OC)cc2)CCC1=O	1.2	2.3
CCCCOc1ccc(C2C(N3C(=O)c4ccccc4C3=O)C(=O)N2c2ccc(Cl)cc2)cc1 (configuration not stated)	0.92	-1.7
CCOCCCN(C(=O)Nc1ccc(CC)cc1)C1CCN(C(C)=O)CC1	1	0.97
COc1cccc(-c2nc3cc(NC(=O)c4cccc(OCc5ccccc5)c4)ccc3o2)c1	1	0.00046
O=C(Nc1c(C(=O)N2CCOCC2)cnn1-c1ccccc1)c1ccccc1F	1	0.39
CCCCc1ccc(NC(=O)CSc2nnc(CNC(=O)c3ccccc3F)o2)cc1	1.1	1.8
Cc1ccc(S(=O)(=O)C2(C(=O)NCCc3ccccc3)CC2)cc1	1	0.43
Cc1nc2cc(C(=O)NCc3ccc4c(c3)OCO4)ccc2n1-c1ccc(Br)cc1	0.99	-0.39
CCC1CCCCN1CCCNC(=O)c1cc(Nc2ccc(OC)cc2)nc2ccccc12 (configuration not stated)	0.91	-0.088
CCC(C)NC(=O)C1CCN(Cc2nc(-c3ccccc3C)oc2C)CC1 (configuration not stated)	1.3	2.5
COc1ccc(-c2nc(CN3CCCC(C(=O)NCc4ccccc4OC)C3)c(C)o2)cc1 (configuration not stated)	0.98	-0.59
COc1ccc(N2C(=O)CC(NCc3ccc(S(N)(=O)=O)cc3)C2=O)cc1 (configuration not stated)	1.1	1.7
CCOc1ccccc1Nc1nc(-c2ccccn2)cs1	0.6	-5.2
CCN(CC)S(=O)(=O)c1ccc2oc(C(=O)Nc3ccc(C)cc3C)c(C)c2c1	1.1	2.3
CC(C)c1ccc(Nc2cc(C(=O)N3CCOCC3)c3ccccc3n2)cc1	1.1	0.084
Cc1nc(Oc2ccc(Cc3ccccc3)cc2)c2c3c(sc2n1)CCCC3	0.82	-0.36
Oc1cccc(Nc2nc(-c3ccc(Br)cc3)cs2)c1	0.77	-3.7
CC(=O)N1CCc2cc(S(=O)(=O)NCCC(=O)Nc3ccc(Br)cc3)ccc21	1	1.8
O=C(Nc1cccc(F)c1)c1cnn(-c2ccccc2)c1C1CCNCC1	1	0.14
Cc1nnc(NC(=O)c2ccc(S(=O)(=O)N3CCCc4ccccc43)cc2)o1	0.034*	-1.3*
Cc1sc2ncn(CC(=O)Nc3ccccc3F)c(=O)c2c1S(=O)(=O)N1CCC(C)CC1	1	0.0085
Cc1ccc(C)c(NC(=O)c2ccc(CNc3c(N4CCOCC4)c(=O)c3=O)cc2)c1	1.1	0.45
COc1cc2c(C(=O)Nc3ccc(C)cc3Br)cn(C)c(=O)c2cc1OC	0.99	-0.45
CCn1c(C(Cc2ccccc2)NC(=O)c2cccc(C)c2)nc2ccccc21 (configuration not stated)	1	0.2
CCc1c(C)sc(NC(=O)c2cc(-c3ccc(Br)cc3)on2)c1C#N	1	1.4
COc1ccc(-c2nn(C)c3sc(C(=O)NC4CCN(Cc5ccccc5)CC4)cc23)cc1OC	0.88	-3.4
CC(NC(=O)c1cc2sccc2n1Cc1ccc(F)cc1)c1ccccc1 (configuration not stated)	1	0.16
COc1ccccc1C(=O)Nc1cc(-c2nc3ccccc3s2)ccc1C	1.1	1.4
N#Cc1ccccc1NC(=O)Cn1nc(Cc2cccnc2)c2ccccc2c1=O	0.99	-0.32
COc1ccc(CNC(=O)CCc2c(C)nc3cc(-c4ccccc4)nn3c2C)cc1	1.1	1.7
Cc1sc2ncnc(N3CCCCCC3)c2c1C	1.1	0.93
Cc1cccc(Nc2nc3cc(Cl)c(Cl)cc3nc2-n2nc(C)cc2C)c1	1.1	3.8
O=C(NC1CCCC1)c1cccc2c1C(=O)N(Cc1cccnc1)C2	0.92	-0.66
Cc1cccc2c1-c1sc(C(=O)Nc3ccc(F)cc3)cc1CO2	1	-0.094
CCOC(=O)N1CCC(NC(=O)c2ccc3c(c2)N(Cc2ccc(C)cc2)CCS3)CC1	1	0.95
Nc1nonc1-n1nnc(C(=O)O)c1CSc1nc2ccccc2o1	0.018*	-26*
CCC(C)NC(=O)C1CCCN(Cc2nc(-c3ccc(Cl)cc3)oc2C)C1 (configuration not stated)	1	1.3
CCc1ccc(NC(=O)CNC(=O)Cn2ccc3ccccc3c2=O)cc1	1.3	2.2
COc1ccc(-n2c(C)nc3c(cnn3-c3ccc(C)c(C)c3)c2=O)cc1Cl	0.89	-1.4
Cc1ccc(NC(=O)C2CCN(S(=O)(=O)c3cccnc3)CC2)c(Cl)c1	0.98	-0.59
COc1ccc2c(c1)c(=O)c(S(=O)(=O)c1ccccc1)cn2Cc1ccc(F)cc1	0.91	-1.7
Cn1c(CNc2nc3ccccc3n2CCN2CCOCC2)nc2ccccc21	0.99	-0.57
COc1cccc(-c2nc(CS(=O)(=O)CC(=O)NCCCOC(C)C)c(C)o2)c1	0.99	-0.32
COc1ccccc1CNC(=O)C1CCN(c2nnc(-n3cccc3)s2)CC1	1.2	2
COC(=O)c1ccc(N2CCOCC2)c(NC(=O)Nc2cccc(OC)c2)c1	0.91	-0.098

In the list so far, 5 contain bromine.
SMILES	CBX7 inh	CBX7 inh z-score
Cc1nc2cc(C(=O)NCc3ccc4c(c3)OCO4)ccc2n1-c1ccc(Br)cc1	0.99	-0.39
Oc1cccc(Nc2nc(-c3ccc(Br)cc3)cs2)c1	0.77	-3.7
CC(=O)N1CCc2cc(S(=O)(=O)NCCC(=O)Nc3ccc(Br)cc3)ccc21	1	1.8
COc1cc2c(C(=O)Nc3ccc(C)cc3Br)cn(C)c(=O)c2cc1OC	0.99	-0.45
CCc1c(C)sc(NC(=O)c2cc(-c3ccc(Br)cc3)on2)c1C#N	1	1.4

The results go on.
SMILES	CBX7 inh	CBX7 inh z-score
COc1ccc2nc(N3CCC(C(=O)NCC(C)CN4CCC(C)CC4)CC3)sc2c1 (configuration not stated)	1.1	1.6
O=C(COc1nc(Cc2ccccc2)nc2sc3c(c12)CCCC3)Nc1ccc(F)c(Cl)c1	0.98	-0.53
COc1cc(/C=C/c2cc(C(F)(F)F)[nH]c(=O)n2)ccc1O	0.88	-1.5
COc1ccc(-c2nnc(Nc3ccc4c(c3)nc(C)n4C)c3ccccc23)cc1	0.94	-1.8
O=C(Cn1nc(-c2ccccc2)ccc1=O)NCCN1CCCC1	1.1	1
COc1cccc(NC(=O)CSc2nccn2-c2ccc(F)cc2)c1	0.64	-1.3
CC1CCc2c(C(=O)NCC3CCCO3)csc2C1 (configuration not stated)	1	0.22
Cc1ccc(-c2nc(-c3ccccc3)no2)cc1C	1.1	2.8
COc1ccc(C(=O)c2cnc(C(C)C)n2C)cc1	0.9	-0.23
CCN1CCN(c2nc3ccccc3nc2NS(=O)(=O)c2ccc(C)cc2)CC1	0.94	-1.8
CC(=O)N1CCc2cc(S(=O)(=O)NCCC(=O)N3CCN(c4cccc(C)c4)C(C)C3)ccc21 (configuration not stated)	0.95	-0.84
CC(NC(=O)c1ccncc1)C(c1cccs1)N1CCOCC1 (configuration not stated)	0.98	-0.4
COc1ccc(/C=C\c2onc(C)c2S(=O)(=O)N2CCC(C(=O)Nc3ccc(C)cn3)CC2)cc1	1	0.0035
CC(C)c1ccc(NS(=O)(=O)c2ccc3c(c2)CCC(=O)N3)cc1	0.99	-0.31
CCc1ccc(NS(=O)(=O)c2ccc3[nH]c(=O)c(=O)[nH]c3c2)cc1	1	1.1

Rewritten in markdown: 2 of the compounds above.
| SMILES | CBX7 inh | CBX7 inh z-score |
| --- | --- | --- |
| CCN1CCN(c2nc3ccccc3nc2NS(=O)(=O)c2ccc(C)cc2)CC1 | 0.94 | -1.8 |
| CCCCOc1ccc(C2C(N3C(=O)c4ccccc4C3=O)C(=O)N2c2ccc(Cl)cc2)cc1 (configuration not stated) | 0.92 | -1.7 |

6 compounds out of the list, sorted by SMILES length, smallest number first.
SMILES	CBX7 inh	CBX7 inh z-score
CC1CCc2c(C(=O)NCC3CCCO3)csc2C1 (configuration not stated)	1	0.22
Cc1ccc(-c2nc(-c3ccccc3)no2)cc1C	1.1	2.8
COc1cccc(NC(=O)CSc2nccn2-c2ccc(F)cc2)c1	0.64	-1.3
COc1cc(/C=C/c2cc(C(F)(F)F)[nH]c(=O)n2)ccc1O	0.88	-1.5
CCN1CCN(c2nc3ccccc3nc2NS(=O)(=O)c2ccc(C)cc2)CC1	0.94	-1.8
CCc1ccc(NS(=O)(=O)c2ccc3[nH]c(=O)c(=O)[nH]c3c2)cc1	1	1.1
